# NS1 function inh: inhibitors of influenza NS1 protein function. S. cerevisiae slowed by influenza A NS1, growth recovery by OD600. Potency, µM (highest dose often 46.1 µM), without a hit: top-dose activity, positive = more growth. actives 0.4% (n = 270,000); further: actives are rising curves; nearly all actives have a fitted effect of over 50% in size
#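 Read-out: OD600 growth recovery of NS1-expressing budding yeast. Cells grown overnight at 30C in -URA glucose medium, washed, resuspended and diluted 1:100 in 2% galactose assay medium, pH 6.0. Same strain lacking NS1 served as positive control.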
# SARS PLpro yeast: blocks SARS-CoV papain-like protease in a yeast assay | S. cerevisiae expressing SARS-CoV PLpro, growth rescue; control for the full effect not named in the record | Potency, µM (top dose mostly 32.9 µM), for inactives: at the top dose activity, positive = growth rescue | actives 0.19% (n = 330,000); further: 0% is about no effect; nearly all actives have a fitted effect of over 55% in size; growth read by luminescence after 48 h
# Marburg entry inh: inhibitors of Marburg virus binding or cell entry; Marburg virus pseudotyped entry inhibition, cell reporter; control for the full effect not named in the record; about a third of the inactives were read at about 46 µM; Potency, µM (titrated, usually from 37.8 µM), inactives show top-dose activity change, negative = inhibition, actives largely listed as inhibitors; actives 1.8% (n = 300,000); AID 540276; active = well fitted inhibition curve with a large enough effect; inconclusive = small, poorly fitted or top-dose-only effect, or effect the other way; inactive = flat fitted curve, though single readings scatter; tested in HEK293 cells; about a fifth of its hits are not listed in these tables; further: on the % scale 0 is the no-effect control and ±100 the full control effect; luciferase read-out
# LASV entry inh: Lassa virus entry inhibition. Lassa virus pseudotype entry inhibition, cell reporter; control for the full effect not named in the record. actives 1.2% (n = 300,000). Potency, µM (highest dose often 37.9 µM), without a hit: top-dose activity change, negative = inhibition, actives largely listed as inhibitors. AID 540256; active means well fitted inhibition curve with a large enough effect; inconclusive means small, poorly fitted or top-dose-only effect, or effect the other way; inactive means flat fitted curve, though single readings scatter; tested in HEK293 cells; further: on the % scale 0 is the no-effect control and ±100 the full control effect; nearly all actives have a fitted effect of over 50% in size; luciferase read-out
# Cruzain inh Det: blocks cruzain activity in presence of Triton detergent. P25779. purified cruzain, Z-FR-AMC fluorescence, 0.01% Triton. Potency, µM, for inactives: max response, negative = inhibition, actives largely listed as inhibitors. actives 0.43% (n = 200,000). AID 1478; active means well fitted curve in the direction sought with a large enough effect; inconclusive means small, poorly fitted or top-dose-only effect, or another doubt; inactive means no such curve, though single readings can be large; an effect the other way counts as inactive or inconclusive;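 further: plate controls were neutral wells for no effect and buffer without enzyme for full effect; nearly all actives have a fitted effect of over 40% in size; top concentration of the series not given in the record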
# Target sequence (P25779 123-467 limits assumed): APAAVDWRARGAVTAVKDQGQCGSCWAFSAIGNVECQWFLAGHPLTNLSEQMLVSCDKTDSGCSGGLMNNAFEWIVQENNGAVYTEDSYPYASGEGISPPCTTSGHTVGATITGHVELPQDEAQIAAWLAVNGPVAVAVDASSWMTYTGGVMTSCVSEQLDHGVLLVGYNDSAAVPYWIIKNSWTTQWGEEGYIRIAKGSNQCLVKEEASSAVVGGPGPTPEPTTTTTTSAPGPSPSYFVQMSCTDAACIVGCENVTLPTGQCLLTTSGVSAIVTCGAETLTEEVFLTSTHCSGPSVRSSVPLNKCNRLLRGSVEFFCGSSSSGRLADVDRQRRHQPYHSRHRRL
#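 Sodium acetate buffer (100 mM, pH 5.5) containing 5 mM DTT and 0.01% Triton X-100 hosted 1.5 nM cruzain and test compound for 15 min at room temperature. Cleavage of 2 uM Z-FR-AMC was then tracked by fluorescence.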
# Cruzain noTriton: cruzain (T. cruzi) inhibition without detergent; P25779; Potency, µM, for the others: max response, negative = inhibition, most hits filed as inhibitors; AID 1476; purified cruzain, Z-FR-AMC fluorescence, no detergent; actives 2.3% (n = 200,000); active means well fitted curve in the direction sought with a large enough effect; inconclusive means small, poorly fitted or top-dose-only effect, or another doubt; inactive means no such curve, though single readings can be large; an effect the other way counts as inactive or inconclusive;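 further: plate controls were enzyme without inhibitor for no effect and buffer without enzyme for full effect; nearly all actives have a fitted effect of over 40% in size; top concentration of the series not given in the record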
#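 Detergent-free condition (0.00005% Triton X-100) in acetate buffer pH 5.5 with DTT. 1.5 nM enzyme and compound were pre-mixed 15 min, then 2 uM Z-FR-AMC substrate added; reaction progress from fluorescence change between first and third reads (60 s).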
# 2A StopGo: FMDV 2A StopGo reporter, luciferase signal | AID 1159524 | human cells with a luciferase reporter of 2A StopGo recoding; control for the full effect not named in the record | actives 1.2% (n = 410,000) | Potency, µM (titrated, usually from 57.9 µM), for the others: at the top dose signal change, negative = less light; active = well fitted falling curve with a large enough effect; inconclusive = small, poorly fitted or top-dose-only effect; inactive = no such curve, though single readings can be large or run the other way; tested in HEK293T cells; further: on the % scale 0 is the no-effect control and ±100 the full control effect; nearly all actives have a fitted effect of over 45% in size; luciferase light after 4 h
# RE007 growth inh: less growth of the S. pombe RE007 Vpr strain. S. pombe RE007 Vpr strain, BacTiter-Glo ATP luminescence, 24 h; control for the full effect not named in the record. Potency, µM (highest dose often 92.2 µM), inactives show top-dose activity change, negative = less growth. actives 0.21% (n = 360,000). AID 651644; active = well fitted falling curve with a large enough effect; inconclusive = small, poorly fitted or top-dose-only effect; inactive = no such curve, though single readings can be large or run the other way;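 further: on the % scale 0 is the no-effect control and ±100 the full control effect; nearly all actives have a fitted effect of over 50% in size; the assay follows cell death caused by Vpr and the record does not say whether a fall means rescue or toxicity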
#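 Fission yeast strain RE007, carrying one chromosomally integrated HIV-1 vpr copy, was seeded at OD 0.01 in PMG+AL medium with 23 nL pinned compound. After 24 h at 30 °C and 99% humidity, viability was read by BacTiter-Glo luminescence.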
# Starred values were filed as active, the others as inactive; u = inconclusive; x = no result given; & = joins results of further samples; [ ] = another dose, or the depositor's remark. Unless noted, the call rests on the fitted dose curve; in most records, active means well fitted rising curve with a large enough effect; inconclusive means small, poorly fitted or top-dose-only effect; inactive means no such curve, though single readings can be large or run the other way. Potency means the concentration at half of the fitted maximal effect.
SMILES,NS1 function inh,SARS PLpro yeast,Marburg entry inh,LASV entry inh,Cruzain inh Det,Cruzain noTriton,2A StopGo,RE007 growth inh
CCc1nn2c(NCCCO)cc(C)nc2c1-c1ccc(F)cc1,0%,-5%,x,x,x,x,10%,-17%
Cc1nn(C(C)C(=O)NC2CCCCC2)c(=O)c2nn(-c3ccccc3)c(C)c12 (centres undefined),4%,-1%,x,x,x,x,-18%,2%
COc1ccccc1N1CCN(c2ncnc3sc(C(=O)NCC4CCCO4)c(C)c23)CC1 (centres undefined),-22%,0%,x,x,x,x,u,7%
COc1cccc(NC(=O)Cn2cc3c(n2)CCCCC3)c1,-32%,-8%,x,x,1.1%,3%,-13%,6%
CCc1cc(C(=O)N2CCN(c3ccccc3OC)CC2)sc1C,-44%,2%,u,u,x,x,-22%,8%
CCn1c(=O)cc(N2CCN(Cc3ccccc3)CC2)[nH]c1=O,-14%,0%,x,x,x,x,-21%,5%
CN(C)CCSc1nnc2[nH]c3ccccc3c2n1,6%,-24%,-12%,1%,-7.2%,-6%,-11%,-2%
Cc1nn2c(-c3ccccc3)c(-c3ccccc3)nc2[nH]c1=O,-7%,-3%,3%,1%,-1.5%,0%,0%,1%
Cc1ccccc1OCCC(=O)OCC(=O)NC1CCCC1,x,-3%,18%[46.1 µM],-11%,x,x,-25%,5%
CCOC(=O)C1CCN(C(=O)c2cc3sc(C)cc3n2C)CC1,x,x,7%[46.1 µM],x,-3.9%,u,28%,x
CCC(O)c1nc2ccccc2n1Cc1cccc(Cl)c1 (centres undefined),x,x,6%[46.1 µM],-2%[46.1 µM],-2.1%,3%,-19%,x
CC(C)Cn1cnc2c1c(=O)n(CC(=O)Nc1ccc3c(c1)OCO3)c(=O)n2Cc1ccccc1,-35%,6%,31%&31%,-9%,-0.2%,4%,-14%,-19%
Cc1cccc(CCNS(=O)(=O)c2ccc(S(=O)(=O)N3CCC(C)CC3)cc2)c1,x,x,-11%,-5%,x,x,24%,6%
COc1ccc(CNCCC(c2ccc(F)cc2)c2ccc(OC(C)C)cc2)cc1OC (centres undefined),-40%,-8%,u,u,x,x,-1%,-2%
Cc1cc(C)n(C(=O)CNC(=O)/C=C/c2ccccc2)n1,-3%,-1%,-3%[46.1 µM],6%[46.1 µM],x,x,-6%,-21%
O=C(NC12CC3CC(CC(C3)C1)C2)OCCNC1CCCCC1,0%,0%,u,1%,x,x,-22%,-1%
O=C(c1ccc2c(c1)N(Cc1ccc(F)cc1)C(=O)c1ccccc1S2(=O)=O)N1CCC(Cc2ccccc2)CC1,x,x,u,u,0.8%,-5%,u,x
O=C(O)c1ccc(/C=N/n2c(C3CCCCC3)n[nH]c2=S)cc1,-1%,4%,0%[46.1 µM],0%[46.1 µM],x,x,-5%,10%
COc1ccc(CNC(=O)C2CCN(S(=O)(=O)c3ccc(Br)s3)CC2)cc1,24%,-2%,-13%[46.1 µM],-13%,x,x,-20%,-9%
CCN(C(=O)CSc1nnc(-c2ccccc2)n1C)C1CCS(=O)(=O)C1 (centres undefined),x,-1%,2%[46.1 µM],16%[46.1 µM],x,x,10%,0%
COCC(C)NC(=O)C1CCN(S(=O)(=O)c2ccc3ccccc3c2)CC1 (centres undefined),x,-7%,1%,2%,x,x,-11%,-14%
COc1cc2c(cc1OC)C(COc1ccc3c(C)cc(=O)oc3c1)N(C(=O)c1ccccc1C)CC2 (centres undefined),x,x,u,-16%[46.1 µM],14%,-7%,-28%,x
Cc1cc(Cl)ccc1C(=O)C1CCCN(C(=O)c2ccc3ncccc3c2)C1 (centres undefined),-7%,0%,-2%[46.1 µM],-15%,x,x,-13%,0%
Cc1ccc(S(=O)(=O)NCC(=O)NC2CCCCCC2)cc1,-9%,1%,-8%,-5%,-0.3%,-1%,10%,8%
CCCN1CCC(NC(=O)C2CCCCC2C(=O)O)CC1 (centres undefined),25%,0%,x,x,x,x,-15%,-11%

# Ordered by length of the SMILES (high to low): five of the compounds above.
SMILES,NS1 function inh,SARS PLpro yeast,Marburg entry inh,LASV entry inh,Cruzain inh Det,Cruzain noTriton,2A StopGo,RE007 growth inh
Cc1cccc(CCNS(=O)(=O)c2ccc(S(=O)(=O)N3CCC(C)CC3)cc2)c1,x,x,-11%,-5%,x,x,24%,6%
COc1ccc(CNC(=O)C2CCN(S(=O)(=O)c3ccc(Br)s3)CC2)cc1,24%,-2%,-13%[46.1 µM],-13%,x,x,-20%,-9%
CCN(C(=O)CSc1nnc(-c2ccccc2)n1C)C1CCS(=O)(=O)C1 (centres undefined),x,-1%,2%[46.1 µM],16%[46.1 µM],x,x,10%,0%
O=C(O)c1ccc(/C=N/n2c(C3CCCCC3)n[nH]c2=S)cc1,-1%,4%,0%[46.1 µM],0%[46.1 µM],x,x,-5%,10%
CCOC(=O)C1CCN(C(=O)c2cc3sc(C)cc3n2C)CC1,x,x,7%[46.1 µM],x,-3.9%,u,28%,x

# Returning to the listing; the three compounds before the break are reprinted first.
SMILES,NS1 function inh,SARS PLpro yeast,Marburg entry inh,LASV entry inh,Cruzain inh Det,Cruzain noTriton,2A StopGo,RE007 growth inh
Cc1cc(Cl)ccc1C(=O)C1CCCN(C(=O)c2ccc3ncccc3c2)C1 (centres undefined),-7%,0%,-2%[46.1 µM],-15%,x,x,-13%,0%
Cc1ccc(S(=O)(=O)NCC(=O)NC2CCCCCC2)cc1,-9%,1%,-8%,-5%,-0.3%,-1%,10%,8%
CCCN1CCC(NC(=O)C2CCCCC2C(=O)O)CC1 (centres undefined),25%,0%,x,x,x,x,-15%,-11%
CCC(C)NC(=O)c1cn(CC)c2ccc(S(=O)(=O)N3CCc4ccccc4C3)cc2c1=O (centres undefined),x,x,-24%[46.1 µM],-24%[46.1 µM],-9.0%,u,-19%,x
CCOC(=O)N1CCC(NC(=O)c2ccc3c(c2)N(Cc2ccccc2)C(=O)c2ccccc2S3(=O)=O)CC1,x,x,5%[46.1 µM],-14%[46.1 µM],-3.0%,u,-4%,x
CC(=O)Nc1ccc(S(=O)(=O)NCCCN2CCOCC2)cc1,-4%,9%,0%[46.1 µM],23%,x,x,0%,2%
COC(=O)c1ccccc1NC(=O)N1CCN(S(C)(=O)=O)CC1,2%,0%,22%[46.1 µM],-4%,x,x,15%,5%
COc1ccc(NC(=O)CN2CCCN(S(=O)(=O)c3ccc(F)cc3)CC2)c(OC)c1,x,-2%,-9%[46.1 µM],u,x,x,-13%,6%
COc1cc(OC)c2c(=O)cc(-c3ccccc3)oc2c1,-10%,-3%,x,x,x,x,31%[activator],-7%
Cc1ccc(NC(=O)CN2CCc3ccccc3C2)cc1C,-19%,-8%,x,x,x,x,19%,-7%
COC(=O)CCCC1=CC2=C(c3ccccc3)C(=O)C(C)(OC(=O)C3CCCC3)C(=O)C2=CN1C1CC1 (centres undefined),0%,1%,x,x,x,x,-10%,-11%
CCOc1cc(CNCc2ccc3c(c2)OCO3)ccc1OC,-3%,-9%,x,x,x,x,-6%,7%
COc1cccc(CN(C)C(=O)C2CCC(=O)N(Cc3cccc(F)c3)C2)c1 (centres undefined),8%,1%,22%,12%,x,x,-2%,3%
N#Cc1c(N)nc2c(c1-c1ccc(Br)s1)CCCC2,-4%,u,-8%,20%,0.0%,u,-10%,x
O=C(N/N=C/c1cc([N+](=O)[O-])ccc1O)NC12CC3CC(CC(C3)C1)C2,-1%,u,-30%,-1%,-2.9%,-5%,u,15%
Fc1ccc(CN2CCCCCCC2)cc1F,2%,15%,u,0%,0.0%,2%,16%,2%
CC(=O)c1ccc(OC(=O)C2CSC3(C)CCC(=O)N23)cc1 (centres undefined),x,-2%,u,-2%,x,x,0%,-11%
O=[N+]([O-])c1cccc(S(=O)(=O)NCC2CC3CCC2C3)c1 (centres undefined),2%,-4%,-30%,16%,x,x,30%[activator],2%
CCCCCC1(C(C)C)C(=O)NC(=S)NC1=O,x,x,1%,-5%,x,x,-22%,-8%
COc1ccc(CN2C(=O)c3cccnc3C2=O)cc1S(=O)(=O)NCc1ccco1,-1%,6%,x,x,x,x,9%,1%
O=C(COC(=O)c1ccc(O)cc1)Nc1ccc2c(c1)OCCO2,x,-2%,u,-2%,x,x,74%[activator],18%
CCn1cc(/C=C(/C#N)S(=O)(=O)c2ccccc2)cn1,-8%,-3%,0%,5%,-5.3%,-13%,-18%,15%
O=C(O)c1ccc(N=Cc2c(O)ccc3ccccc23)cc1,-2%,12%,u,-3%[46.1 µM],x,x,-5%,-15%
COc1ccc(S(=O)(=O)NC2CC3CCC2C3)cc1Br (centres undefined),-118%,-16%,x,x,x,x,64%[activator],2%
COc1ccccc1/C=C1\SC(=O)N(CCC(=O)N2CCCCC2CCO)C1=O (centres undefined),6%,-1%,x,x,x,x,-15%,1%
COc1cc(NS(=O)(=O)c2ccc(NC(=S)NC(=O)/C=C/c3ccc(OC)c(OC)c3)cc2)ncn1,x,0%,x,-6%,x,x,54%[activator],9%
CCOc1ccccc1NC(=O)CSc1nc2c([nH]c3ccccc32)c(=O)n1-c1ccccc1,x,x,x,-22%[46.1 µM],-3.2%,-15%,-20%,x
O=P(Cc1ccccc1O)(c1ccccc1)c1ccccc1,-4%,-2%,u,20%,-0.5%,-2%,13%,-3%
Cc1ccc2c(c1)C(=O)CC1(CCC(C(C)(C)C)CC1)O2 (centres undefined),-3%,0%,x,x,x,x,-6%,0%
Cc1cc(C(C)(C)C)oc1C(=O)O,-8%,0%,8%,14%,x,x,-7%,3%
Cc1cccc(OCC(O)CN2CCc3ccccc3C2)c1 (centres undefined),16%,2%,x,x,x,x,4%,-3%

# Source: PubChem (National Center for Advancing Translational Sciences (NCATS))
